From PubChem BioAssay
CapD inh: blocks the Bacillus anthracis CapD enzyme; purified CapD enzyme, fluorescence intensity read-out; active compounds read low; some hits fall short of the stated cut; z-score (concentration not given with the values); actives 0.23% (n = 140,000); AID 492967;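 active means z-score under -4 in either of two replicates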;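 further: stock transfer was 100 nL into about 40 µL; score is relative to mean and spread of the plate; one replicate is shown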
AID504770: growth inhibitors of E. coli YBA685 in a screen for V. cholerae RctB (chromosome II replication) inhibitors | E. coli YBA685 rctB-dependent plasmid, OD600 growth, 3 h; active compounds read low | z-score (concentration not given with the values) | actives 0.27% (n = 130,000);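 active means z-score under -2 on both plates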;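 further: wells of about 30 µL received 100 nL stock; score is relative to mean and SD of the test wells; the first replicate is given; strong numbers were not always called active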
Starred values were filed as active, the others as inactive; / = no result given; & = joins results of further samples.

SMILES | CapD inh | AID504770
O=C(NCC1CCCO1)c1cccc2cc[nH]c12 (configuration not stated) | 2.4 | /
CCCn1nc(NC(=O)CCC(=O)O)c2cc3cccc(C)c3nc21 | / | 3.4
CCc1ccc(N2CN(Cc3ccccc3)CNC2=S)cc1 | -0.53 | -0.05
CCOC(=O)c1ccc(NC(=O)C2CC(=O)NC(Nc3nc4ccccc4s3)=N2)cc1 (configuration not stated) | / | 0.6
CC1CCCCN1C(=O)COc1ccc2oc3ccccc3c2c1 (configuration not stated) | / | -0.1
C/C(=N\NC1=NCCN1Cc1ccccc1)c1ccc(F)cc1 | -0.88 | /
Cc1ccc(OCC2SCCN2C(=O)c2ccc(F)cc2)c([N+](=O)[O-])c1 (configuration not stated) | -0.3 | /
O=C(CCNS(=O)(=O)c1ccc2nc(-c3ccccc3)[nH]c2c1)N1CCOCC1 | 2.4 | -0.6
O=C(CCNC(=O)Nc1ccccc1)Nc1ccc(N2CCOCC2)cc1N1CCOCC1 | / | 0
CCc1noc(C)c1C(=O)N1CCCCCCC1 | 0.3 | -1.1
COc1ccccc1/C=N/OCC(=O)NCc1ccc2c(c1)OCO2 | / | -0.2
COc1ccc(N2CCN(C(=O)c3ccc4nc(-c5ccc(OC)c(OC)c5)c(-c5ccc(OC)c(OC)c5)nc4c3)CC2)cc1 | 1.1 | /
CCOC(=O)C1CCCN(C(=O)C(C)(C)Oc2ccc(Cl)cc2)C1 (configuration not stated) | / | 0.75
CCc1cc(=O)n2[nH]c(C)c(-c3ccccc3OC)c2n1 | 1.2 | -0.1
CC1Nc2ccccc2C(=O)N1NC(=O)c1ccc(Br)cc1 (configuration not stated) | 4.7 | -0.6
Cc1ccc(N2C(=O)c3cccc4c(N5CCN(C)CC5)ccc(c34)C2=O)c2cccnc12 | -0.05 | -0.55
O=C1NC(=O)C2C1C(c1ccccc1)N1C3C(=O)NC(=O)C3C(c3ccccc3)N21 (configuration not stated) | 0.06 | -0.4
Cc1ccccc1NC(=O)CN1C(=O)c2ccccc2C1=O | -0.69 | -0.75
CC1(CSc2ccccc2C(=O)O)NC(=O)NC1=O (configuration not stated) | / | -0.8
CC1CCCC(NC(=O)Cn2ncc(Cl)c(Cl)c2=O)C1C (configuration not stated) | / | -0.05
Cc1ccccc1-n1c(Cn2c(=O)sc3ccccc32)n[nH]c1=S | / | -0.45
O=C(COC(=O)c1ccc2c3c1C1C=CCC1CN3CC1CC=CC21)c1ccc(Cl)cc1 (configuration not stated) | -0.35 | /
O=C(NCC1CCNCC1)c1ccno1 | -1 | 2.8
Cc1ccc(/C(O)=C/c2nc3ccccc3[nH]2)cc1 | / | -0.8
CN(NC(=O)Nc1ccc(Cl)cc1)c1ncc(C(F)(F)F)cc1Cl | -0.3 | /
COc1ccc(C(=O)NCC23C=CC(O2)C2C(=O)N(c4ccccc4C)C(=O)C23)cc1 (configuration not stated) | / | -0.2
O=C(N/C=C/c1ccsc1)Sc1cc(C(F)(F)F)cc(C(F)(F)F)c1 | 0.79 | 0.35
COc1ccc(C2SCCN2C(=O)c2cc3cc(Br)ccc3oc2=O)cc1 (configuration not stated) | 0.53 | /
CCN(CCC#N)c1ccccc1 | 0.075 | -0.8
COc1cccc(CN2CCCC(COC(=O)NCc3ccc(-c4csnn4)cc3)C2)c1[N+](=O)[O-] (configuration not stated) | -0.24 | /
COc1cccc(NC(=O)/C=C/C(=O)O)c1 | 0.17 | /
N#Cc1ccc(COC(=O)Cn2ccc(=O)[nH]c2=O)cc1 | / | -0.15
S=C1NC(c2ccc(Br)cc2)=CC(c2ccccc2)N1 (configuration not stated) | -0.09 | /
COC(=O)c1ccc(OC(=O)c2sccc2C)cc1 | / | -1.2
CC(C1CC1)N1C(=O)C2C(C1=O)C1C=CC2C12CC2 (configuration not stated) | 0.14 | -0.35
Cc1ccc(SCCC#N)cc1 | / | -0.2
COC(=O)c1ccc(Nc2nc(N3CCN(C)CC3)c3ccccc3n2)cc1 | 72 | 0
CCCn1nnc2c(=O)oc3ccccc3c21 | 0.58 | -0.55
Cc1noc(C)c1CSc1ncccc1C(=O)Nc1sc2c(c1C#N)CCC(C)C2 (configuration not stated) | / | -0.55
CN1CCN(c2nc(-c3cccs3)cc(C(F)(F)F)n2)CC1 | 4 | -1.1
COc1ccc(Br)cc1/C=N/NC(=O)c1csc(CS(=O)(=O)Cc2ccco2)n1 | 0.47 | /
O=c1[nH]nc(-c2ncc[nH]2)c2ccccc12 | 28&14 | 0.8
N/C(=N\O)C(=O)Nc1ccccc1 | 0.085 | 1.2
CCC1CCCN1Cn1cnc2c([nH]c3ccccc32)c1=O (configuration not stated) | 35 | 0.9
O=C(Cn1c(C(=O)O)cc2ccccc21)c1ccccc1 | -0.03 | -0.6
CC(C)OCC(O)CSc1nc2ccccc2s1 (configuration not stated) | / | -0.5
Cc1csc2c(=O)n(CCO)c(=O)[nH]c12 | -0.65 | /
CCOc1ccc(C2C(N3C(=O)c4ccc([N+](=O)[O-])cc4C3=O)C(=O)N2c2ccc(Cl)c(Cl)c2)cc1 (configuration not stated) | -0.025 | /
COc1cc(C2CC(C(F)(F)F)n3ncc(C(=O)N4CCN(C(c5ccccc5)c5ccccc5)CC4)c3N2)cc(OC)c1OC (configuration not stated) | -0.055 | /
CCOc1ccccc1-n1c(N)c(C(=O)Nc2ccccc2C)sc1=S | -0.085 | /
CCC(OC(=O)CN1C(=O)c2ccccc2C1=O)C(=O)NC1CCCC1 (configuration not stated) | / | 0.05
O=C(C1COc2ccccc2O1)N1CCNCC1 (configuration not stated) | 0.3&-0.91 | -0.2
COC(=O)C1=C(NNc2ncc(Cl)cc2C(F)(F)F)CSC1 | 0.18 | -0.4
Nc1nonc1-c1nc2ccccc2n1CC(=O)N1CCN(c2ccc(F)cc2)CC1 | 1.2 | 0.3
COc1ccc(CCN2C(=O)CC(C(=O)Nc3ccc(C(=O)O)cc3)SC2=Nc2ccccc2)cc1 (configuration not stated) | 0.4 | /
COc1ccc(CCNC(=S)NC2CC3C=CC2C3)cc1OC (configuration not stated) | -0.59 | /
CC1CCCCN1c1ccc(C(F)(F)F)cn1 (configuration not stated) | 2.8 | -0.6
O=C(c1ccc(C(F)(F)F)n(Cc2ccc(Cl)cc2)c1=O)N1CCCC1 | -0.07 | /
CCOc1ccc(OCCC(=O)Nc2ccc(S(=O)(=O)N(C)C)cc2)cc1 | / | -0.2
CCn1cc(CCC(=O)NC(C)C)c2ccccc21 | 2.6 | -0.65

Further results:
SMILES | CapD inh | AID504770
CSc1ccccc1C(=O)Nc1cc(C)cc(C)c1 | 0.29 | 0.9
CCCCN(C)S(=O)(=O)c1ccc2c(c1)CCCC(=O)N2 | 0.81 | -0.2
Cc1ccc(=O)n(Cc2ccc(Cl)cc2)n1 | 0.36 | /
COc1ccc(CN(C)C(=O)CSc2ccccc2)cc1 | 0.18 | 0.15
Cc1ccc(S(=O)(=O)/N=C(\Nc2cc(C)on2)c2ccccc2)cc1 | -0.73 | 1.9
COc1ccc2sc(N(CCN(C)C)C(C)=O)nc2c1 | -0.085 | -0.4
Cc1nnsc1-c1n[nH]c(C)c1C(=O)NN | 0.16 | -0.05
O=C(NCc1ccc(Cl)cc1)c1cc2c(Cl)nc3ccccc3c2s1 | 0.62 | 1
CCN1CCN(C(C)C(=O)Nc2ccc3c(c2)OCO3)CC1 (configuration not stated) | / | 1.4
COc1ccccc1CN1CCCC(C(=O)N(C)Cc2ccccc2)C1 (configuration not stated) | 0.23 | 0.1
CCNC(=O)Nc1ccc2[nH]c(C(C)(C)C)cc2c1 | 0.44 | /
COc1ccccc1N1CCN(S(=O)(=O)c2cc(C(=O)Nc3ccc(Br)cc3)ccc2F)CC1 | -0.33 | /
CCc1nnc2c(Nc3ccc4c(c3)OCCO4)nc3ccccc3n12 | 0.31 | 0.25
CN1C(=O)c2ccc(NC(=O)c3c(F)c(F)c(F)c(F)c3F)cc2C1=O | 0.14 | 0.8
COc1ccccc1CC(=O)N1CCCC(C)C1 (configuration not stated) | -0.02 | -0.55

A stretch of the results above:
SMILES | CapD inh | AID504770
CC1CCCCN1c1ccc(C(F)(F)F)cn1 (configuration not stated) | 2.8 | -0.6
O=C(c1ccc(C(F)(F)F)n(Cc2ccc(Cl)cc2)c1=O)N1CCCC1 | -0.07 | /
CCOc1ccc(OCCC(=O)Nc2ccc(S(=O)(=O)N(C)C)cc2)cc1 | / | -0.2
CCn1cc(CCC(=O)NC(C)C)c2ccccc21 | 2.6 | -0.65
CSc1ccccc1C(=O)Nc1cc(C)cc(C)c1 | 0.29 | 0.9
CCCCN(C)S(=O)(=O)c1ccc2c(c1)CCCC(=O)N2 | 0.81 | -0.2
Cc1ccc(=O)n(Cc2ccc(Cl)cc2)n1 | 0.36 | /
COc1ccc(CN(C)C(=O)CSc2ccccc2)cc1 | 0.18 | 0.15
Cc1ccc(S(=O)(=O)/N=C(\Nc2cc(C)on2)c2ccccc2)cc1 | -0.73 | 1.9
COc1ccc2sc(N(CCN(C)C)C(C)=O)nc2c1 | -0.085 | -0.4
Cc1nnsc1-c1n[nH]c(C)c1C(=O)NN | 0.16 | -0.05
O=C(NCc1ccc(Cl)cc1)c1cc2c(Cl)nc3ccccc3c2s1 | 0.62 | 1
CCN1CCN(C(C)C(=O)Nc2ccc3c(c2)OCO3)CC1 (configuration not stated) | / | 1.4
COc1ccccc1CN1CCCC(C(=O)N(C)Cc2ccccc2)C1 (configuration not stated) | 0.23 | 0.1
CCNC(=O)Nc1ccc2[nH]c(C(C)(C)C)cc2c1 | 0.44 | /
COc1ccccc1N1CCN(S(=O)(=O)c2cc(C(=O)Nc3ccc(Br)cc3)ccc2F)CC1 | -0.33 | /

Additional results
SMILES | CapD inh | AID504770
CCOC(=O)c1nnn2c1nc(Sc1nnc(-c3ccncc3)n1C)c1ccccc12 | 4.3 | 0.3
COc1ccc(C)cc1S(=O)(=O)N1CCCN(c2ncc(C(F)(F)F)cc2Cl)CC1 | 0.7 | /
Cc1ccc(S(C)(=O)=NS(=O)(=O)c2sc3ccc(Cl)cc3c2C)cc1 (configuration not stated) | -0.52 | 0.15
CCOC(=O)C1=C(N)Oc2c(C)cc(Cl)cc2C1C(C#N)C(=O)OCC (configuration not stated) | 2.1 | 1.2
N=C(N)SC12CC3CC(CC(C3)C1)C2 | -0.51 | -0.2
C=CCN1C(=O)C(C(=O)Nc2ccccc2)C2CC1(C)Oc1ccccc12 (configuration not stated) | -0.43 | -0.15
O=C(OCc1nnc(-c2ccc(Cl)cc2)o1)c1ccc2c(c1)C(=O)N(Cc1ccco1)C2=O | / | 1.9
O=C(CCN1C(=O)/C(=C/c2cccs2)SC1=S)Nc1nc2ccccc2s1 | -0.33 | /
C=CC[N+](C)(C)CC#Cc1ccccc1 | 1.1 | 0.5
N#Cc1ccsc1NC(=O)COC(=O)CSc1nnc(-c2ccc(F)cc2)n1-c1ccccc1 | / | 1.4
O=C(c1ccc(Cl)cc1)N1CCC(O)(CSc2ccccc2)CC1 | -0.045 | /
Cc1nc(N2CCOCC2)c2c(C)c(C(=O)Nc3cccc(Cl)c3C)sc2n1 | 2 | -1.4
c1cc2c3c(cccc3c1)C(N1CCCCCC1)=N2 | / | 0.35
Cc1cc(C(=O)COc2ccc(F)cc2)c(C)n1-c1ccccc1 | 0.14 | 1.8
CCSc1nnc(C2CCCN(CC(=O)NC3CCCCC3C)C2)n1CC (configuration not stated) | / | -0.45

Looked up by structure from above, two records:
SMILES | CapD inh | AID504770
C=CC[N+](C)(C)CC#Cc1ccccc1 | 1.1 | 0.5
c1cc2c3c(cccc3c1)C(N1CCCCCC1)=N2 | / | 0.35

The results go on:
SMILES | CapD inh | AID504770
O=C(C(Cc1ccccc1)NS(=O)(=O)c1ccc(F)cc1)N1CCC2(CC1)OCCO2 (configuration not stated) | 0.35 | -0.45
Cc1nn(-c2ccccc2)nc1CNC(=O)c1ccc(N(C)C)cc1 | 0.7 | -0.35
CCOC(=O)c1c(-c2cccs2)csc1NC(=O)COC(=O)c1cc2c(s1)CCC2 | / | 1
CN1CCN(C(=O)c2nn3c(C(F)(F)F)cc(-c4ccc(Cl)cc4)nc3c2Cl)CC1 | 0.97 | /
Cc1ccc(Cl)cc1N1CCN(CC(=O)Nc2ccc3[nH]c(=O)[nH]c3c2)CC1 | -0.94 | 0.35
Cc1nnc(NC(=O)c2cccc(Cl)c2)s1 | 0.02 | -1.6
CSC(=S)OCC12CC3CC(CC(C3)C1)C2 | 0.12 | -0.3
CC(C)(C)NC(=O)c1ccccc1 | 5.2 | 2
Cc1ccn2cc(C(=O)N3CCCN(S(=O)(=O)c4ccc(F)cc4)CC3)nc2c1 | / | 0.1
FC(F)(F)c1ccc(NCn2nnc3ccccc32)cc1 | -0.55 | 2.1
Cc1ccc(-n2c(SC(C)C(=O)NC(N)=O)nc3ccccc32)cc1 (configuration not stated) | / | -0.1
O=C(CSc1nccc(C(F)(F)F)n1)Nc1ccc(Br)cc1 | 0.21 | -0.1
O=C(CSC1=NCCS1)Nc1ccccc1C(F)(F)F | 5.1 | -0.1
CC(=N\O)/C(=N\O)c1cccs1 | 0.73 | 0.6
N#Cc1cc(C#N)c(SCC(=O)c2ccc(Br)cc2)nc1N | 0.58 | /
CC1(C)CC2CC(C)(CN2C(=O)CSc2nnnn2-c2ccccc2)C1 (configuration not stated) | / | 1.2
O=C1N(CCOc2ccccc2)c2ccccc2C12OCCCO2 | / | -0.45
CC(=O)Nc1ccc2nc(SCc3ccc(Br)cc3)sc2c1 | -0.03 | /
COc1cc(C2C3=C(CC(C)(C)CC3=O)OC3=C2C(=O)CC(C)(C)C3)ccc1OCC(=O)Nc1ccc2c(c1)OCO2 | -0.68 | /
O=C(COc1cccc2c1CCN(Cc1ccccc1)C2=O)Nc1ccc2c(c1)OCCO2 | / | 0.05
CCOc1ccc(NC(=O)c2cc3ccccc3o2)cc1OCC | 1.9 | 2.3
c1coc(CNCC2OCCc3ccccc32)c1 (configuration not stated) | / | -0.5
Cn1c(Nc2ccccc2)nc2ccccc21 | / | -1.6
Cc1cccc(NC(=O)Cn2c(CNC(=O)c3ccccc3)nc3ccccc32)c1 | 0.66 | 1.2
CC(=O)Nc1c(N)c2ccccc2oc1=O | -0.055 | 1.4
